Source: PubChem BioAssay
TsaE inh = displaces an ADP probe from E. coli YjeE (TsaE); P0AF67; actives 0.05% (n = 71,000); purified YjeE, fluorescence polarisation of a bound ADP probe; Potency, µM; AID 605; active = well fitted falling curve; inconclusive = weaker or top-dose-only fall, or a rising curve; inactive = flat or poorly fitted curve;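 note: top concentration of the series not given in the record; excess ADP was the control for the full effect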
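Fluorescence polarization of a BODIPY Texas Red–ADP probe (2 uM) bound to purified YjeE (10 uM) was read after 15 min room-temperature incubation with compounds. Loss of polarization marks inhibitors; ADP serves as titrated control.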
Bst PK mod = modulators of Bacillus stearothermophilus pyruvate kinase | partly purified Bacillus stearothermophilus pyruvate kinase, luminescence ATP production; ribose 5-phosphate activator present at AC10 | Potency, µM | actives 1.2% (n = 51,000); in the data active means potency below about 11 µM; inconclusive means mostly about 12 µM to 25 µM; inactive means weaker than that;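 the screen sought inhibitors and activators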;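 note: potency is the fitted concentration of half-maximal effect; scaled between full activation by ribose 5 phosphate and full inhibition by luteolin; about four in five hits inhibit and the cells do not say which; series up to 57 µM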
An asterisk follows results filed as active; i = inactive; . = no result given. An excerpt; the hit share may differ from the screen's.

cpd	canonical_smiles	TsaE inh	Bst PK mod
1	Cc1ccc(C2CC(=O)NC3=C2C(=O)CCC3)cc1Br (stereo not drawn)	i	>57
2	COc1ccc(C(=O)O)cc1S(=O)(=O)N(C)CCc1cccnc1	i	>57
3	O=C(O)c1ccccc1C(=O)Nc1cc2c(cc1Br)-c1ccccc1C2=O	i	.
4	CC(=O)[C@@]1(O)CC[C@H]2[C@H]3C[C@@H](C)C4=CC(=O)C=C[C@]4(C)[C@@]3(F)[C@@H](O)C[C@]21C	i	.
5	O=C(COc1ccccc1)Nc1ccccc1N1CCCCC1	i	>57
6	O=C(CSc1nnc(Cn2nnc(-c3ccccc3)n2)n1-c1ccccc1)Nc1ccccc1	i	>57
7	CCOC(=O)N1CCN(C(=O)COc2ccc(S(=O)(=O)Nc3ccc(OCC)cc3)cc2)CC1	i	>57
8	CNC(=O)c1ccc(-c2sc3nc(N4CCOCC4)c4c(c3c2N)CCCC4)o1	i	.
9	Cc1nnc(NC(=O)CSC2CCCCC2)s1	i	.
10	COC(=O)C(C)n1cnc2c(nnn2-c2ccc(OC)cc2)c1=O (stereo not drawn)	i	>57
11	C=CCCCOc1ccc(C(=O)O)cc1	i	>57
12	Cc1cccc(-c2noc(C3CCCCC3)n2)c1	i	.
13	Cn1c(=O)n(CCN2CCOCC2)c(=O)c2c1nc1n2CCN1c1ccc(Oc2ccccc2)cc1	i	>57
14	CN(C)c1ncc2nc(-c3ccc(Cl)cc3)c(=O)n(Cc3cccs3)c2n1	i	.
15	O=C1CCCC2=C1C1(CCCCC1)N=C(Nc1nc3ccccc3o1)N2	i	>57
16	CCOC(=O)c1[nH]c(C)c(C(=O)OCc2c(C)noc2C)c1C	i	>57
17	N#CC(=NCCO)C1=C(O)c2ccccc2C1=O	i	.
18	CC(C)CC(c1nnnn1Cc1ccco1)N1CCN(c2cccc(Cl)c2)CC1 (stereo not drawn)	i	>57
19	COc1ccccc1N1CCN(C(=O)C(Cc2ccccc2)NC(=O)C2CCCCC2)CC1 (stereo not drawn)	i	>57
20	Cc1cc(NC(=O)c2ccc(N(C)S(=O)(=O)c3ccccc3)cc2)no1	i	>57
21	CCOC(=O)N1CCC(NC(=O)CCCN2C(=O)CSc3ncccc32)CC1	i	>57
22	CC(C)=C1C2C=CC1C(C(=O)Nc1cc(C)ccc1C)C2C(=O)O (stereo not drawn)	i	>57
23	COC(=O)[C@H](CCSC)NC(=O)Nc1ccc(C)cc1C	i	>57
24	Cc1cc(C)cc(NC(=O)CSc2nnc(-c3ccccc3C)o2)c1	i	>57
25	Cc1ccc(NC(=O)CSc2nnc(-c3ccccc3Br)o2)cc1C	i	>57
26	COc1ccc2[nH]cc(CCNc3nc(-c4cccc(NS(C)(=O)=O)c4)nc4ccccc34)c2c1	i	.
27	O=C(CSc1nnc(CNC(=O)c2cccs2)o1)NC1CCCC1	i	>57
28	CCOC(=O)CCc1c(C)nc2ncnn2c1C	i	>57
29	COc1ccc(NC(=O)CN2CCC(n3c(C)nc4cc(F)ccc43)CC2)c(OC)c1	i	>57
30	O=C(CC1NCCNC1=O)OCc1ccccc1 (stereo not drawn)	i	>57
31	O=C(CSC1=Nc2ccccc2C2=NC(c3ccccc3)C(=O)N12)NCC1CCCO1 (stereo not drawn)	i	>57
32	COc1cc(C(=O)NCCc2cn3ccccc3n2)cc(OC)c1OC	i	.
33	CCn1c(SCC(=O)c2ccc(Cl)cc2)nnc1-c1ccoc1C	i	>57
34	CCCCNC(=O)NCC(=O)Nc1ccc(F)c(F)c1	i	>57
35	NS(=O)(=O)c1ccc(N=Nc2nc3[nH]cnc(=S)c3[nH]2)cc1	i	.
36	Cc1ccc2c(c1)N(CC(=O)O)C(=O)CO2	i	>57
37	O=C(O)c1ccc(OC2CSC2)cc1	i	.
38	COc1cc(NC(=O)CSc2nnnn2-c2ccccc2)cc(OC)c1OC	i	>57
39	Cc1ccc(/C(O)=C2\C(=O)C(=O)N(c3cc(C)on3)C2c2cccc(Cl)c2)cc1 (stereo not drawn)	i	>57
40	N#CC1=C2SCN(Cc3ccco3)CN2C(=O)CC1c1cccc2ccccc12 (stereo not drawn)	i	i
41	COc1ccc(CCNC(=O)C2CCN(Cc3nc(-c4ccc(Cl)cc4)oc3C)CC2)cc1OC	i	>57
42	Nc1ncnc2c1ncn2[C@@H]1O[C@H](CO)[C@@H](O)[C@H]1O	.	>25.6
43	O=C(Nc1nc(-c2ccccc2)cs1)C1CCCCN1S(=O)(=O)c1ccccc1 (stereo not drawn)	i	>57
44	Cc1cccc(C(C)C)c1-n1nnnc1-c1ccccc1	i	.
45	C=CCn1c(-c2cc(OC)c(OC)c(OC)c2)n[nH]c1=S	i	>57
46	N#CCCN1CCN(S(=O)(=O)c2ccc(S(=O)(=O)NC3CCCCC3)cc2)CC1	i	.
47	CC(C)OCCCn1c(-c2ccco2)nc2nc3ccccc3nc21	i	>57
48	CC(=O)c1c(N2CCN(c3cccc(Cl)c3)CC2)nc(=S)n(-c2ccccc2)c1C	i	>57
49	CCOC(=O)c1[nH]c2ccc(Br)cc2c1NC(=O)CNC	.	>25.6
50	Cc1ccc(C2c3c(oc4ccccc4c3=O)C(=O)N2c2nnc(C)s2)o1 (stereo not drawn)	i	>57
51	CCn1nnc(NC(=O)c2ccccc2Br)n1	i	>57
52	CC(=O)OCCC(C)C	i	.
53	O=c1c2cccnc2[nH]c(=S)n1CCC1=CCCCC1	i	>57
54	CC1=C(C(N)=O)C(c2ccccn2)n2nc(-c3ccccc3Cl)nc2N1 (stereo not drawn)	i	.
55	CC1=C(C(=O)OCC2CCCO2)C(c2cccc(O)c2)NC(=O)N1 (stereo not drawn)	i	.
56	Cc1cc(N2CCN(S(=O)(=O)c3ccccc3)CC2)c2ccccc2n1	i	.
57	COC(=O)COc1cccc(NC(=O)c2cccs2)c1	i	>57
58	CC(C)C[C@H](NC(=O)[C@@H](O)[C@@H](N)Cc1ccccc1)C(=O)O	i	.
59	CCC(=O)N/C(=N/c1nc(C)cc(C)n1)Nc1cccc(OC)c1	i	.
60	Cc1cccc(/C=C\c2ccccc2)n1	i	.

Random excerpt: 4 compounds from above
cpd	canonical_smiles	TsaE inh	Bst PK mod
60	Cc1cccc(/C=C\c2ccccc2)n1	i	.
55	CC1=C(C(=O)OCC2CCCO2)C(c2cccc(O)c2)NC(=O)N1 (stereo not drawn)	i	.
49	CCOC(=O)c1[nH]c2ccc(Br)cc2c1NC(=O)CNC	.	>25.6
52	CC(=O)OCCC(C)C	i	.

Other compounds
cpd	canonical_smiles	TsaE inh	Bst PK mod
61	Cn1c(=O)c2cnc(N3CCOCC3)nc2n(C)c1=O	i	>57
62	CC(C)(C(=O)O)c1ccc([C@@H](O)CCCN2CCC(C(O)(c3ccccc3)c3ccccc3)CC2)cc1	i	.
63	O=C(CCc1ccc(S(=O)(=O)N2CCCCC2)cc1)c1nnc(-c2ccccc2)o1	i	>57
64	CCc1ccccc1NC(=O)c1ccoc1C	i	>57
65	CCOc1cc(C2C3=C(CCCC3=O)NC3=C2C(=O)CCC3)cc(Cl)c1O	i	>57
66	COC(=O)[C@@]1(Cc2ccc(F)cc2)[C@H]2c3cc(C(=O)N4CCCC4)n(Cc4cc(C)n(C)n4)c3C[C@H]2CN1C(=O)c1ccccc1	i	.
67	COc1ccc(C2C(C(=O)NCC3CCCO3)c3cc(OC)c(OC)cc3C(=O)N2C)cc1OC (stereo not drawn)	i	>57
68	Cc1ccc(C)c(N2CCN(C(=O)CCS(=O)(=O)c3cccc4nonc34)CC2)c1	i	>57
69	COc1ccc(NC(=O)C2CCCN2S(=O)(=O)c2ccc3c(c2)CCC(=O)N3)c(OC)c1 (stereo not drawn)	i	.
70	CC(=O)Nc1cccc(NC(=O)C2CCCN2C(=O)Nc2cccc(C)c2)c1 (stereo not drawn)	i	>57
71	O=C(Nc1ccccc1)N1CCn2c1nc1ccccc12	i	9.69*
72	c1cncc(Nc2nc(-c3cccs3)cs2)c1	i	>57
73	O=c1c2ccccc2oc2nc(-c3ccco3)n(CCc3ccccc3)c(=O)c12	i	>57
74	Cc1cc(C(=O)NCCN2CCN(c3cccc(Cl)c3)CC2)n(-c2ccccc2)n1	i	.
75	CC(=O)NC(=O)NC1OC(=O)C(Cl)=C1Cl (stereo not drawn)	i	>57
76	COc1ccc(CCNC(=O)COC(=O)c2cnc(C)cn2)cc1OC	i	>57
77	CCCCc1c(O)nc(SCC(=O)Nc2ccc3c(c2)CCC3)[nH]c1=O	i	>57
78	COc1cc(OC)nc(NC(=O)CSc2nnc(-c3ccccc3)n2C2CCCCC2)n1	i	>57
79	Cc1nc2cc(NC(=O)NCc3ccco3)ccc2o1	i	>57
80	CCc1cc(C(=O)Cc2cnn(-c3ccccc3)c2)c(O)cc1O	i	.
81	CC1(C)C(c2cccs2)=NC(c2ccccc2)N1O (stereo not drawn)	i	>57
82	N#CC1=C2SCN(Cc3ccccc3)CN2C(=O)CC1c1cccs1 (stereo not drawn)	i	.
83	COc1ccc(C(=O)C2CCN(C(=O)c3ccco3)CC2)cc1	i	>57
84	Cc1cc(NC(=O)CSc2nnc(C3CC3)n2C)no1	i	>57
85	CC(=O)c1cccc(NC(=O)C2CCN(S(=O)(=O)c3c(C)n[nH]c3C)CC2)c1	i	.
86	COc1ccccc1S(=O)(=O)Cc1ccc(C(=O)NCc2cccnc2)o1	i	.
87	O=C(NCCCN1CCOCC1)c1coc2ccccc2c1=O	i	>57
88	CC1=C(C(=O)OC(C)C)C(/C=C/c2ccccc2)NC(=O)N1 (stereo not drawn)	i	>57
89	CS(=O)(=O)N1CCC(C(=O)NCC2CCCO2)CC1 (stereo not drawn)	i	>57
90	COc1ccc(C(CC(=O)N2CCOCC2)C(C)C)cc1 (stereo not drawn)	.	>25.6
91	Cc1ccc(C2C(C(=O)c3cc4ccccc4o3)=C(O)C(=O)N2CCN2CCOCC2)o1 (stereo not drawn)	i	>57
92	O=c1c2cc(Cl)ccc2nc2ccc(N3CCCC3)nn12	i	i
93	CCNc1nc(NC(C)C)nc(N(C#N)C(C)C(=O)N(C)C)n1 (stereo not drawn)	.	>25.6
94	CCOc1ccc(C(=O)Nc2cccc(C)n2)cc1	i	9.78*
95	CC1Cn2c(nnc2C23CC4CC(CC(C4)C2)C3)S1 (stereo not drawn)	i	>57
96	[O-][n+]1c(CN2CCCCC2)nc2cccc3c2c1-c1ccccc1-3	i	.
97	COC(=O)c1ccccc1CCC(C)=O	i	>57
98	COc1ccc(-c2cc(C(F)(F)F)n3ncc(C(=O)NCc4ccco4)c3n2)cc1	i	.
99	COc1ccccc1NC(=O)CSC1=NC(=O)C(NC(C)=O)C(=O)N1 (stereo not drawn)	i	>57
100	Cc1nc(SCC(=O)Nn2c(-c3ccccc3)nc3ccccc3c2=O)n[nH]1	i	>57
101	CCC(C(=O)NC1CCCC1)N(C(=O)Cn1nnc(-c2ccc(OC)c(OC)c2)n1)C1CCCCC1 (stereo not drawn)	i	>57
102	O=C(NC1(C(F)(F)F)NC(=O)N(Cc2ccco2)C1=O)c1cccs1 (stereo not drawn)	i	>57
103	NC(=O)NOC[C@@H]1NC(=O)NC1=O	i	.
104	O=C(Cn1c(NCCCO)nc2ccccc21)c1cccs1	i	.
105	CC1CCN(S(=O)(=O)c2ccc3c(c2)oc(=O)n3CC(=O)N2c3ccccc3CC2C)CC1 (stereo not drawn)	i	.
106	O=C(c1cc2ccccc2oc1=O)N1CCN(Cc2ccc3c(c2)OCO3)CC1	i	>57
107	CCCCC(=O)Nc1ccc(NC(=O)CC)cc1OC	i	>57
108	COCCNC(=O)COC(=O)c1nsc(Cl)c1Cl	i	>57

Whole records as entered above.
Listed for O=C(c1cc2ccccc2oc1=O)N1CCN(Cc2ccc3c(c2)OCO3)CC1 = TsaE inh = i; Bst PK mod = >57
Listed for COc1ccccc1NC(=O)CSC1=NC(=O)C(NC(C)=O)C(=O)N1 (stereo not drawn) = TsaE inh = i; Bst PK mod = >57

More entries follow.
cpd	canonical_smiles	TsaE inh	Bst PK mod
109	COCCCn1c(Cc2csc(Nc3cccc(Cl)c3)n2)nnc1SCC(=O)OC	i	>57
110	Cn1c(NCc2cccc(Br)c2)nc2ccccc21	i	>57
111	COc1ncc2nc(-c3ccc(F)cc3)c(=O)n(Cc3cccs3)c2n1	i	.
112	COc1ccc(N2CCN(C(=O)CN3C(=O)c4ccccc4S3(=O)=O)CC2)cc1	i	>57
113	COc1cccc(-c2nc(=S)c3c(n2CCCO)CCCC3)c1	i	>57
114	Cc1ccccc1NC(=O)c1c(-c2ccccc2)noc1C	i	>57
115	Cc1sc2nc(SCC(=O)NCc3ccco3)n(CCc3ccccc3)c(=O)c2c1C	i	>57
116	CCc1ccc(N(CC(=O)Nc2ccc(OC)cc2OC)S(C)(=O)=O)cc1	i	.
117	COc1cc(C(=O)Nc2nccs2)ccc1OCc1c(C)noc1C	i	>57
118	CC1=CC(=O)OC1Cc1ccncc1 (stereo not drawn)	i	>57
119	COc1ccc(Oc2ncc3nc(-c4cccc(C#N)c4)c(=O)n(C)c3n2)cc1	i	.
120	COC(=O)CC1SCCNC1=O (stereo not drawn)	i	>57
121	CCOC(=O)C1CCN(CC(O)COc2ccc(C(=O)CC)cc2)CC1 (stereo not drawn)	i	>57
122	CCCn1c(SCC(N)=O)nnc1C(C)C	i	>57
